D2 agonist – agonists of human D2 dopamine receptor (beta-arrestin) | activation, % (test concentration not listed) | 360,000 compounds, 0.084% hits | P14416 | DiscoveRx PathHunter D2 beta-arrestin, luminescence, 90 min; 100% = 57 uM dopamine signal | AID 624465; in the data active = activation above about 40%; inconclusive = about 15% to 40%; inactive = below about 15%; note: compound concentration not given in the record; the text of the record calls up to 30% inactive
Target sequence (P14416 whole entry, looked up): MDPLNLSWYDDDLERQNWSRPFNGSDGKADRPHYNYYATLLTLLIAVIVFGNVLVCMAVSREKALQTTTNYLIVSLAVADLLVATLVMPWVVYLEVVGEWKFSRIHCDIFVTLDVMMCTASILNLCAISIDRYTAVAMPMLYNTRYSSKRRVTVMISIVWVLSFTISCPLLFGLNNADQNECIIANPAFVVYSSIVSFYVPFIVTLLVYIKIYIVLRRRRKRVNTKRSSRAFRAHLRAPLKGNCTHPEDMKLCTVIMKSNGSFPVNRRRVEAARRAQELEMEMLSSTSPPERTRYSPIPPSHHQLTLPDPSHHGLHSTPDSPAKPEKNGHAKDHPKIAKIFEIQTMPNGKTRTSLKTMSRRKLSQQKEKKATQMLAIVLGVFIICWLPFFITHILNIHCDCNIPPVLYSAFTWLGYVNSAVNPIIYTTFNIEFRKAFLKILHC
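Agonist mode: compounds alone added to overnight-plated D2 PathHunter cells for 90 min at 37 C, with 57 uM final dopamine (EC100) defining full response. Beta-arrestin recruitment detected by chemiluminescent reagent, read after 1 h at ambient temperature.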
TRPML1 inh – human mucolipin-1 channel inhibition; Q9GZU1; TRPML1-inducible cells, Ca2+ dye fluorescence, FDSS; stronger effect = lower value; inhibition of EC80 agonist-evoked calcium signal; activity change, negative = inhibition, % (no concentration beside the values); 390,000 compounds, 0.02% hits; in the data active means activity change below about -50%; inconclusive means about -30% to -50%; inactive means above about -30%;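 note: stimulus is agonist 54-4 at its EC80 concentration; % is set by controls: 0 for no effect and ±100 for the full control effect; compound concentration not given in the record; the text of the record puts the active cut at -80%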
Target sequence (Q9GZU1 whole entry, looked up): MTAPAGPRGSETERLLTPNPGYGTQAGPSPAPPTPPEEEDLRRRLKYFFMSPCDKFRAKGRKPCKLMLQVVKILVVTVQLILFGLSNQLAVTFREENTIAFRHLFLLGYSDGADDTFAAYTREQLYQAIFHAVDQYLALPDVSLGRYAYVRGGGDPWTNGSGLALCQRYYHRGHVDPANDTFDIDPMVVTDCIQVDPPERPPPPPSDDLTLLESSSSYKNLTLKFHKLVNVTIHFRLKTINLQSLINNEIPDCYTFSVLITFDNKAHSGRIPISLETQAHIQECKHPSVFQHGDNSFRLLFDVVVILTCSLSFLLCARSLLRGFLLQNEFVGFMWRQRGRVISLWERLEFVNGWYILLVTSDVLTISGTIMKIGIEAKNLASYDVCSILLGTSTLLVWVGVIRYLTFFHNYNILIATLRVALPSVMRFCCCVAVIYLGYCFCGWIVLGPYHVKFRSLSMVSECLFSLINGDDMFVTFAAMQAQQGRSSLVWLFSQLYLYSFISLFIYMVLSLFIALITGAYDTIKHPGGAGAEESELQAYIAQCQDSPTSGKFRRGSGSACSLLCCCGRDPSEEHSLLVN
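TRPML1-DL cells, Tet-induced overnight (~16 h, 37 °C) at 1,500 cells/well, were loaded with Ca8 no-wash dye plus quencher for 45-90 min at room temperature. Compounds were pinned during FDSS kinetic reading; agonist 54-4 at EC80 (4 uM final) then added.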
Six1-Eya2 blk – blocks human Six1 binding to Eya2. Q15475+O00167. AlphaScreen GST-Six1/His-Eya2 binding, biochemical; stronger effect = lower value; control for the full effect not named in the record. activity change, % (concentration not given with the values). 360,000 compounds, 0.56% hits. AID 651725; in the data active = activity change below about -65%; inconclusive = about -30% to -65%; inactive = above about -30%; note: % is set by controls: 0 for no effect and ±100 for the full control effect
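AlphaScreen with GST-Six1 and His-Eya2 (5X mix: 250 nM and 500 nM), glutathione donor and nickel acceptor beads; buffer 50 mM Tris pH 8.0, 300 mM NaCl, 1 mM TCEP; 1 h at 37 C in the dark.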
PINK1 modulator – modulators of PINK1 expression; AID 624263; Potency, µM (top dose mostly 76.6 µM), for the others: at the highest dose activation (PINK1 increase), most hits filed as activators; PINK1 immunofluorescence, high-content cytometry, 24 h; 410,000 compounds, 0.2% hits; active = well fitted activation curve with a large enough effect; inconclusive = small, poorly fitted or top-dose-only effect; inactive = flat fitted curve, though single readings scatter; cell line not stated here;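 note: potency is the fitted concentration of half-maximal effect; % of control where 0% means no effect; nearly all actives have a fitted effect of over 65% in size; a mitochondrial uncoupler was the plate control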
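Readout is PINK1 immunofluorescence, quantified alongside mitochondrial, cell and nuclear markers by laser-scanning microplate cytometry. Cells from a stable line were exposed to compound titrations (5 concentrations) for 24 hours, with CCCP controls.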
TRPML1 ag – agonists of human TRPML1 channel. TRPML1-expressing cells, Ca2+ dye fluorescence, FDSS; host cell line not named in the record; reference of the full effect not given here. activation, % (concentration not given with the values). Q9GZU1. AID 624414. 410,000 compounds, 0.12% hits; in the data active = activation above about 50%; inconclusive = about 30% to 50%; inactive = below about 30%; note: 0% is about no effect; the text of the record puts the active cut at 80%
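Kinetic FDSS Ca2+ read in Tet-induced TRPML1-DL cells (ABD Ca8 dye plus quencher, 45-90 min RT loading): baseline, then compound, then 110 s agonist window; EC80 agonist 54-4 at 4uM final added afterwards for a 110 s antagonist window.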
D2 PAM – potentiates the human D2 dopamine receptor allosterically. DiscoveRx D2 beta-arrestin cells, luminescence, 90 min; 100% = 57 uM dopamine signal. potentiation, % (no concentration beside the values). AID 624464. 360,000 compounds, 0.23% hits; active = potentiation of 50% or more; inconclusive = 30% to 50%; inactive = 30% or less;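 note: compound concentration not given in the record; tested on top of an EC20 dose of dopamine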
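PathHunter D2 cells, attached overnight at 37 deg C, received compound in DMSO plus dopamine at EC20 (50 nM final) for 90 min at 37 deg C. Beta-arrestin recruitment was read as luminescence after 1 h with detection reagent at ambient temperature.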
Numbers without * were called inactive; ? = inconclusive; . = not tested or not shown; & = joins results of further samples; [ ] = dose if it differs, or a comment.

item	molecule	TRPML1 ag	D2 PAM	D2 agonist	PINK1 modulator	Six1-Eya2 blk	TRPML1 inh
1	CCOc1ccccc1NC(=O)N1CCc2c(sc(C)c2CC)C1c1ccccc1 (stereo not given)	6.4	.	.	-0.2%	.	-2
2	COc1ccc(NC(=O)CC2C(=O)NCCN2C(=O)c2ccc(N(C)C)cc2)cc1 (stereo not given)	0.0	-10	6.1	0.8%	14	-8
3	O=C(Nc1ccc(Nc2ccccc2)cc1)c1c(F)c(F)c(F)c(F)c1F	-0.3	-8	2.6	1.2%	-2	-2
4	CCOc1ccccc1NC(=O)c1cc(C(=O)c2cc(OC)ccc2O)coc1=N	1.1	28	11	4.4%	-5	5
5	COc1ccccc1C(=O)OC1CCCN(C)C1 (stereo not given)	1.2	-14	-1.9	-1.2%	-10	-16
6	CC1Cc2nc(SCC(=O)NCc3ccco3)n(-c3ccccc3)c(=O)c2S1 (stereo not given)	0.2	2	-1.5	-0.3%	-2	4
7	Cc1ccccc1OCCSc1nc2ccc(NC(=O)c3ccco3)cc2s1	0.2	.	.	-1.0%	.	16
8	CCOC(=O)C1(C)CCCCN1C(=O)c1ccco1 (stereo not given)	0.3	5	0.4	-0.8%	-2	5
9	Cc1cc(/C=N/n2cnnc2)c(C)n1-c1ccc(OCc2ccc(Cl)cc2Cl)cc1	2.2	-11	-5.4	-4.1%	-25	49
10	CCOC(=O)Cc1cc(=O)n2[nH]c(C(C)(C)C)cc2n1	0.7	-10	-5.4	-0.4%	5	-3
11	N#CCSc1nc2ccccc2o1	-0.1	-2	-0.3	2.1%	7	2
12	COc1c2ccoc2cc2oc(C)cc(=O)c12	.	-21	4.4	2.2%&-1.6%	1	.
13	O=C1CC(/C=C/c2cccnc2)=Nc2ccccc2N1	1.1	-6	7.1	1.1%	2	13
14	COc1ccc(CN2CCNC(=O)C2CC(=O)N(C)Cc2ccon2)c(OC)c1 (stereo not given)	-0.5	0	-12	-0.2%	1	12
15	CCCn1c2ccccc2c2cnn(CC(=O)N3CCN(c4ccccc4F)CC3)c(=O)c21	0.9	.	.	6.6%	.	23
16	CC(=O)Oc1c(C)c(C)c2c(c1C)CCC(C)(CCCC(C)CCCC(C)CCCC(C)C)O2 (stereo not given)	0.9	-6	2.9	0.3%	7	4
17	CC(=O)Nc1ccc(S(=O)(=O)/N=C2\SCCN2S(=O)(=O)c2ccc(NC(C)=O)cc2)cc1	0.9	-9	-2.4	1.9%	1	-11
18	Cc1nn(C)c(C(=O)Nc2ccc(Cn3cccn3)cc2)c1[N+](=O)[O-]	-0.1	-15	-3.3	-0.2%	6	6
19	N=c1c2c(-c3ccccc3)c(-c3ccccc3)n(Cc3ccco3)c2ncn1CCCn1ccnc1	0.3	-13	-1.1	-1.3%	-19	-25
20	Cc1cc(C)c(S(=O)(=O)Nc2ccnc(-c3cccnc3)n2)c(C)c1	0.2	-1	-1.2	6.6%	-3	-4
21	CCN1CCN(c2ncc3c(n2)CCN(Cc2cc(F)cc(F)c2)C3)CC1	0.4	.	.	4.3%	.	0
22	Cc1cc(=O)oc2cc(NC(=O)CCCC(=O)O)ccc12	-1.4	11	-4.0	1.0%	-5	-6
23	Cc1ccc(N=C2NC(=O)/C(=C\c3cccs3)S2)cc1C	1.4	-12	-4.8	2.8%	7	66
24	O=C(Cn1cnc2c(OCc3ccccc3)ncnc21)NCCCn1ccnc1	0.5	-2	-1.7	0.4%	-1	1
25	CC(=O)Nc1ccc(S(=O)(=O)N2CCN(C(=O)c3cccnc3)CC2)cc1	-0.5	-3	1.3	-1.0%	-1	-8
26	COc1ccc(-c2nnnn2CCc2ccccc2)cc1	0.2	6	0.0	1.6%[38.3 µM]	11	16
27	O=c1[nH]c2ccc(S(=O)(=O)N3CCCCC3)cc2[nH]1	-0.4	2	-1.2	5.4%[38.3 µM]	0	-1
28	COc1ccccc1NC(=O)c1ccc(-c2ccccc2[N+](=O)[O-])o1	2.2	20	7.7	3.9%	0	14
29	CC(C)(C)n1ncc2c(=O)n(CC(=O)N3CCCCC3)cnc21	0.0	1	0.2	0.0%	9	2
30	Cc1cccc(NC(=S)NCC(c2ccccc2)N(C)C)c1 (stereo not given)	0.9	-12	-1.1	-0.6%	-7	-22
31	CC(=O)c1nn(-c2cccc(Br)c2)cc1C(=O)c1cccc2ccccc12	1.2	-19	-2.0	12%[38.3 µM]	-4	27
32	O=C(O)CCn1cc(/C=C/C(=O)c2ccc(Cl)cc2)c(-c2ccc(Br)cc2)n1	-0.7	-13	0.7	-2.1%	-4	-18
33	CCNC(=S)N(CCc1c(C)[nH]c2ccc(Cl)cc12)Cc1ccco1	1.0	-16	11	?	-23	-4
34	CC(=O)NC(=S)Nc1ccc2oc(-c3cc(F)c(F)cc3Cl)nc2c1	-0.3	-4	3.8	6.8%	14	-5
35	Cc1ccccc1N1C(=O)CC(N2CCC(C(N)=O)CC2)C1=O (stereo not given)	-0.5	-2	-1.1	-1.0%[38.3 µM]	-1	7
36	O=C(c1ccc(=O)[nH]c1)N(Cc1cccs1)C1(C(=O)NC2CCCC2)CCCCC1	2.1	-8	0.0	0.0%	8	-13
37	Cc1cc(C)cc(NC(=O)Cc2csc(C)n2)c1	1.9	.	.	0.6%	.	3
38	COCCCn1c(=S)[nH]c(C)c(C)c1=O	0.7	-6	4.0	0.4%	-3	-2
39	CCc1cccc(NC(=O)CSC2=Nc3ccccc3N=C(c3ccc(F)cc3)C2)c1	0.1	.	.	5.0%	.	-3
40	COc1ccc(NC(=O)CCCSc2nc(-c3ccco3)cc(C(F)(F)F)n2)cc1OC	1.1&2.6	-2	-4.5	1.6%&0.4%	-7	10&-3
41	COc1cc(C(=O)N2CCC2(C)C(=O)NC(C)C)cc(OC)c1OC (stereo not given)	-0.7	5	2.2	2.9%	-4	.
42	CC1CCN(C(=O)COc2coc(CN3CCc4ccccc43)cc2=O)CC1	1.2	-17	5.8	0.3%	1	-2
43	CN1CCN(c2ccc(S(=O)(=O)N3CCCCC3)cc2NC(=O)c2ccc3ccccc3c2)CC1	1.0	-12	-3.3	15%	-17	43
44	Cc1cccnc1NC1OC(=O)c2ccccc21 (stereo not given)	0.6	-1	-4.3	1.5%	6	5
45	CCC1(CC)C(=O)N(C)C(=O)NC1=Nc1ccccc1	-0.2	-3	1.3	-0.5%	0	10
46	O=C(/C(=C/c1cccc(Cl)c1)c1nc2ccccc2[nH]1)c1ccccc1	0.3	-25	-5.6	-1.3%	-11	-10
47	O=C(CSc1nc2ccc(N3CCOCC3)cc2c(=O)n1CCc1ccccc1)NCC1CCCO1 (stereo not given)	0.5	6	14	1.0%	0	-5
48	Cc1ccc(-c2cc(C(=O)N3CCOCC3)c3cc(C)ccc3n2)cc1	-0.3	-4	8.0	1.6%	-1	6
49	O=C(NCc1cccnc1)c1nn2cccnc2c1Cl	-0.8	-12	-2.6	0.8%	6	-19
50	O=[N+]([O-])c1ccc(-c2cnc(SC(c3ccccc3)c3ccccc3)[nH]2)cc1	0.7	-1	0.2	?	-29	11
51	CC(C)c1cc(CN2CCN(Cc3ccc(F)c(F)c3)C(CCO)C2)[nH]n1 (stereo not given)	-0.7	-20	0.9	-0.1%	-7	-5
52	CCOc1ccccc1C1c2[nH]c3ccccc3c2C[C@H]2C(=O)N(C3CCN(Cc4ccccc4)CC3)CC(=O)N12 (stereo not given in full)	0.1	-18	-1.8	2.0%	?	-2
53	Cn1c(CCN2CCN(c3ccc(F)cc3)CC2)nc2cc(NC(=O)c3ccco3)ccc21	-0.9	1	2.4	1.1%	-20	6
54	Nc1ncnc2c1ncn2C1OC(C(=O)NC2CC2)C(O)C1O (stereo not given)	-0.7	-5	1.0	-0.9%	-3	19
55	O=C(NCc1ccc(F)cc1)C1CCCN1S(=O)(=O)c1cccc2nsnc12 (stereo not given)	-0.7	-6	-1.8	-1.6%	1	1
56	Nc1ccc(Oc2ccc(Br)cc2)cc1	-0.4	-4	-11	4.9%	-17	8
57	O=C(NCCNC(=O)c1cc(OCC(F)(F)F)ccc1OCC(F)(F)F)Nc1cccc(C(F)(F)F)c1	3.8	-6	-1.5	?	-2	-7

2 records picked at random from those above, as already listed:
item	molecule	TRPML1 ag	D2 PAM	D2 agonist	PINK1 modulator	Six1-Eya2 blk	TRPML1 inh
32	O=C(O)CCn1cc(/C=C/C(=O)c2ccc(Cl)cc2)c(-c2ccc(Br)cc2)n1	-0.7	-13	0.7	-2.1%	-4	-18
19	N=c1c2c(-c3ccccc3)c(-c3ccccc3)n(Cc3ccco3)c2ncn1CCCn1ccnc1	0.3	-13	-1.1	-1.3%	-19	-25

In the list so far, these have an NH in an aromatic ring.
item	molecule	TRPML1 ag	D2 PAM	D2 agonist	PINK1 modulator	Six1-Eya2 blk	TRPML1 inh
10	CCOC(=O)Cc1cc(=O)n2[nH]c(C(C)(C)C)cc2n1	0.7	-10	-5.4	-0.4%	5	-3
27	O=c1[nH]c2ccc(S(=O)(=O)N3CCCCC3)cc2[nH]1	-0.4	2	-1.2	5.4%[38.3 µM]	0	-1
33	CCNC(=S)N(CCc1c(C)[nH]c2ccc(Cl)cc12)Cc1ccco1	1.0	-16	11	?	-23	-4
36	O=C(c1ccc(=O)[nH]c1)N(Cc1cccs1)C1(C(=O)NC2CCCC2)CCCCC1	2.1	-8	0.0	0.0%	8	-13
38	COCCCn1c(=S)[nH]c(C)c(C)c1=O	0.7	-6	4.0	0.4%	-3	-2
46	O=C(/C(=C/c1cccc(Cl)c1)c1nc2ccccc2[nH]1)c1ccccc1	0.3	-25	-5.6	-1.3%	-11	-10
50	O=[N+]([O-])c1ccc(-c2cnc(SC(c3ccccc3)c3ccccc3)[nH]2)cc1	0.7	-1	0.2	?	-29	11
51	CC(C)c1cc(CN2CCN(Cc3ccc(F)c(F)c3)C(CCO)C2)[nH]n1 (stereo not given)	-0.7	-20	0.9	-0.1%	-7	-5
52	CCOc1ccccc1C1c2[nH]c3ccccc3c2C[C@H]2C(=O)N(C3CCN(Cc4ccccc4)CC3)CC(=O)N12 (stereo not given in full)	0.1	-18	-1.8	2.0%	?	-2
